From PubChem
Rango complex inh: prevents formation of the Rango-importin beta complex | Potency, µM (titrated, usually from 92.2 µM), for the others: at the top dose inhibition of complex formation | 340,000 tested, 0.031% active | AID 540263 | Rango CFP/YFP FRET sensor + importin beta, 45 min; active = rising FRET ratio curve, often small or poorly fitted; inconclusive = mostly compound fluorescence or quenching in the first reads; inactive = flat curves in all reads;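 also: potency is read from the fitted curve at half-maximal effect; 0% = DMSO wells and 100% = buffer wells lacking importin beta; nearly all actives have a fitted effect of over 15% in size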
Target sequence (Q14974 whole entry, looked up): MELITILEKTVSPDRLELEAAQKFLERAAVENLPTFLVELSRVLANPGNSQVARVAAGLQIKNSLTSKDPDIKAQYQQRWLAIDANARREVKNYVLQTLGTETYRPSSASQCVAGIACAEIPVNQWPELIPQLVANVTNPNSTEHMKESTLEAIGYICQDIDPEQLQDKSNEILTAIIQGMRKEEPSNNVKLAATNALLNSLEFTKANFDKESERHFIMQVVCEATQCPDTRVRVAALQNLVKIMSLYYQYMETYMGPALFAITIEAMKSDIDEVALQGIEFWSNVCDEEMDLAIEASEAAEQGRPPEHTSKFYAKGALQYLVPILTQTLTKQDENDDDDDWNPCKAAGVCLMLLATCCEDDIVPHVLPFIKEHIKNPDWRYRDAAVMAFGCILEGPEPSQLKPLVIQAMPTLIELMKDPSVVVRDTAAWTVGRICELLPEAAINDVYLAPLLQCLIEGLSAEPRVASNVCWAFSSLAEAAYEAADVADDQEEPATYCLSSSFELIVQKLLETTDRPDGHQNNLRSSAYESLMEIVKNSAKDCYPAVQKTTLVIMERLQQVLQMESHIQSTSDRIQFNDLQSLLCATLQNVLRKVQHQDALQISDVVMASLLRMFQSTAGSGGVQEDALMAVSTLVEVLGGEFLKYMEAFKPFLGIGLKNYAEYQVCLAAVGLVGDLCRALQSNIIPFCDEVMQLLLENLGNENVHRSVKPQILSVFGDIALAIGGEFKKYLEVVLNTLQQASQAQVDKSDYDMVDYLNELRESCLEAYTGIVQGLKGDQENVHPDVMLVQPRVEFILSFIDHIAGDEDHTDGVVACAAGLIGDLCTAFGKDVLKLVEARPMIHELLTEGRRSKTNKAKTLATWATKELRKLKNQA
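Inhibition scored from the CFP 486 nm/YFP 530 nm FRET ratio 45 min after adding 0.125 microM importin beta to 50 nM Rango biosensor preincubated 5 min with compound (room temperature, PBS with DTT, Tween-20, BSA). No-importin wells as positive control.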
Rango release inh: prevents RanGTP from dissociating the Rango-importin beta complex; O95149+P62826; Biochemical FRET Rango-importin beta, RanGTP-induced dissociation; Potency, µM (top dose mostly 46.1 µM), for inactives: at the top dose activity change, negative = inhibition; 340,000 tested, 0.071% active; AID 540253; active means falling FRET ratio curve, often poorly fitted, with flat reads before Ran was added; inconclusive means other falling curves, or compound fluorescence or quenching; inactive means flat or rising ratio curve;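 also: potency is read from the fitted curve at half-maximal effect; % of control where 0% means no effect; nearly all actives have a fitted effect of over 45% in size; -100% = wells without RanGTP and RCC1; the record marks most hits as doubtful in a second field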
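FRET read at 45 min, room temperature: inhibitors block the CFP/YFP signal rise when RanGTP (0.6 uM Ran, 2 mM GTP, 0.2 uM RCC1) frees Rango (0.1 uM) from importin beta (0.25 uM). Pre-read after 5 min compound exposure flags interference.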
miR-21 FLuc: raises the signal of a miR-21 reporter. HeLa miR-21 FLuc reporter, luciferase, 48 h. Potency, µM (titrated, usually from 38.3 µM), inactives show at the top dose reporter change, positive = more light. 340,000 tested, under 10 active; active = well fitted rising curve with a large enough effect; inconclusive = small, poorly fitted or top-dose-only effect; inactive = no such curve, though single readings can be large or run the other way;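 also: % of control where 0% means no effect; miR-21 action dims this reporter so a rising signal means less miR-21 action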
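Luminescence from a firefly luciferase reporter carrying a miR-21 binding site downstream, stably expressed under a CMV promoter in HeLa cells that make miR-21 endogenously, reports miRNA modulation after 48 h compound exposure up to approximately 40uM final.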
GLA inh pH 4.5: inhibitors of human alpha-galactosidase A at pH 4.5 | purified enzyme, 4-MU-alpha-Gal fluorescence, pH 4.5 | activity change, negative = inhibition, % at 105 µM | 230,000 tested, under 10 active | AID 1467; inconclusive = small, poorly fitted or top-dose-only inhibition, or a rising curve; inactive = flat fitted curve, though single readings scatter; no compound was filed as active;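 also: 0% = full activity with enzyme and -100% = basal without enzyme; dose as in the result columns while the protocol names 77 µM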
The depositor's hits bear a star; ? = inconclusive; . = not tested or not shown; & = joins results of further samples.

Below each compound: Rango complex inh, Rango release inh, miR-21 FLuc, GLA inh pH 4.5
- CCOc1cccc(C(=O)N/N=C/c2ccoc2)c1
→ -0.1%, 28.9%, -29.0%, .
- CCOc1cccc2sc(N(CCN(C)C)C(=O)CCS(=O)(=O)c3ccccc3)nc12
→ -0.2%, -10.3%, ., .
- O=C(CSC1=Nc2ccccc2C2CC=NN12)Nc1ccc2c(c1)OCO2 (configuration not stated)
→ -3.0%, 7.0%, -18.5%, 3.3
- COc1cc(-c2cc(-c3nnco3)c3ccccc3n2)cc(OC)c1OC
→ 0.3%, 0.7%, 14.9%, -8.6
- COc1ccccc1NC(=O)C(C)OC(=O)C1COc2ccccc2O1 (configuration not stated)
→ 2.4%, 8.8%, ., .
- CCC(=O)N1c2ccc(S(=O)(=O)N(CCO)Cc3ccccc3)cc2CC1C (configuration not stated)
→ -0.8%, 3.0%, 3.1%, -11.5
- O=C(CSc1nc2ccccc2c(=O)n1NC(=O)c1ccccc1)c1ccccc1
→ -0.9%, 1.2%, -13.4%, 9.7
- COc1cccc(NC(=O)C(=O)N/N=C/c2cc(C)n(-c3ccc(Cl)c(Cl)c3)c2C)c1
→ 2.1%, -14.1%, -34.6%, 1.4
- CC1CCN(S(=O)(=O)c2ccc(NC(=S)NC(=O)c3ccc(Cl)cc3)cc2)CC1
→ ?, 28.8%, -7.0%, 0.5
- COc1ccc(NC(=O)CN(C)C(=O)c2ccc(COc3ccccc3)cc2)cc1
→ 3.2%, -12.0%, ., .
- C#CCNc1c(C)c(C)nc2ncnn12
→ 2.0%, 9.9%, -4.0%, -4.5
- Cc1sc2ncnc(SCC(=O)N3CCCC(C(N)=O)C3)c2c1C (configuration not stated)
→ 2.8%, 6.5%, ., .
- O=C(O)/C=C/C(=O)NCc1cn(-c2ccccc2)nc1-c1cccc(Br)c1
→ -0.4%, 41.1%, 5.8%, -6.2
- CCCOc1ccc(-c2nc[nH]c2[N+](=O)[O-])cc1
→ -2.0%, 0.0%, -1.6%, -4.6
- Cc1csc(NC(=O)Cc2ccc(Br)cc2)n1
→ 2.9%, 11.8%, -34.7%, .
- O=C(Nc1ccc2c(c1)C(=O)NC2=O)c1cc(Cl)ccc1Cl
→ 0.5%, -7.0%, -0.6%, .
- O=C(O)c1ccc(-n2nncc2-c2ccco2)cc1
→ 0.0%, 5.5%, -0.8%, .
- CC(C)=CCC12Oc3cc(O)ccc3C1(O)Oc1cc(O)c([C@H]3C=C(C)CC(c4ccc(O)cc4O)[C@H]3C(=O)c3ccc(O)cc3O)c(O)c1C2=O (some centres not stated)
→ -1.9%, -4.7%, ., .
- Cc1cc(C)c(C)c(OCCOCCNCc2ccccc2)c1
→ -3.9%, 19.7%, 14.1%, 2.6
- O=C(NCCN1CCCCC1)c1cc(Cl)ccc1Cl
→ 3.6%, 3.4%, 0.9%, .
- COc1ccc(C2c3cc(OC)c(OC)cc3CC3C(=O)OCC32)cc1OC (configuration not stated)
→ -0.9%, 2.2%, ., .
- COc1ccc(Nc2ccccc2)c(C)c1
→ 0.2%, -5.1%, -8.0%, -4.0
- CN(C(=O)c1ccc(NC(=O)Cc2ccc(NC(=O)C3CCCN(C(=O)C4CC4)C3)cc2)cc1)C1CC1 (configuration not stated)
→ -2.3%, 23.8%, ., .
- Clc1ccc(-c2nc3ncccn3c2Nc2ccc3c(c2)OCCO3)cc1
→ 0.4%, 9.3%, -7.7%&-15.9%, 4.9
- COc1ccc(Cl)cc1NC(=O)CN(C)C(=O)c1cc(-c2cccs2)nn1-c1ccccc1
→ -0.6%, 0.0%, ., .
- CCCN=C1CC(C)(C)CC(=O)/C1=C(/O)CCCN1C(=O)c2ccccc2C1=O
→ -1.0%, 19.0%, -3.6%, 0.1
- O=C(CSc1nc2ccccc2c(=O)n1CC1CCCO1)Nc1ccccc1Cl (configuration not stated)
→ -0.5%, 2.5%, 0.2%, .
- O=C(CSCc1ccccc1Cl)NNC(=S)Nc1ccccc1
→ -1.0%, 2.7%, -30.6%, -3.9
- CS(=O)(=O)N1CCN(c2ccccc2NC(=O)c2cccnc2Cl)CC1
→ 0.4%, -1.2%, -0.9%, 8.1
- COc1cccc(OC)c1C(=O)NC(=S)Nc1ccc(S(=O)(=O)Nc2nccs2)cc1
→ 1.8%, -15.8%, -9.7%, -21.9
- COc1ccc(C(=O)N/C(=C\c2ccco2)C(=O)NCc2cccnc2)cc1
→ 2.1%, -17.0%, -1.3%, -2.5
- N/C(=N\OC(=O)c1cccc(Br)c1)c1ccccn1
→ 0.2%, 1.1%, -17.8%, .
- CC1(C)C(=O)Nc2ccccc2N1C(=O)COc1ccc(S(=O)(=O)N2CCOCC2)cc1Cl
→ 3.8%, -7.6%, -10.1%, 1.9
- CC(C)(C)N(NC(=O)Nc1ccccc1)C(=O)c1ccccc1Cl
→ -2.8%, -11.3%, -3.3%, -8.2
- Cc1nnc2c(SC(C)C)nc3ccccc3n12
→ -0.1%, -2.3%, -15.7%, .
- CN(C)S(=O)(=O)c1ccc(C(=O)OCC(=O)c2csc(N3CCCCC3)n2)cc1
→ ?, ?, ., .
- CC(C)c1nnc(NC(=O)C2CCCCC2)s1
→ 10.6%, 14.8%, -33.1%, -8.0
- C=CCN1C(=O)C(CCCC)NC1=S (configuration not stated)
→ -2.4%, -3.8%, -0.1%, 2.5
- Cn1c2ccccc2c2n[nH]c(=S)nc21
→ -2.6%, 9.9%, -6.3%, .
- COC(=O)c1ccc2c(=O)n(CCN3CCOCC3)c(SCC(=O)c3ccccc3)nc2c1
→ -3.3%, -12.5%, -0.2%, 2.1
- CN(C)c1ccc(C(=O)NC2CCCc3ccccc32)cc1 (configuration not stated)
→ -1.2%, 1.2%, -24.8%, 5.4
- O=C(CSc1ccc(Cl)cc1)OCC(=O)N1CCN(c2ccccc2)CC1
→ 1.1%, 14.8%, ., .
- COc1cc(OC)c(C(=O)/C=C/c2ccccc2)c(O)c1O
→ 1.5%, -11.8%, ?, 3.7
- CCOc1ccccc1Nc1nc(-c2sc(C)nc2C)cs1
→ 9.5%, 3.4%, -19.0%, -3.0
- CC(=O)Nc1sc(C)c(C)c1C(=O)OCC(=O)N(C)c1c(N)n(Cc2ccccc2)c(=O)[nH]c1=O
→ 1.6%, -5.0%, ., .
- COCCOC(=O)c1ccc(NC(=O)COc2ccc([N+](=O)[O-])cc2)cc1
→ 1.4%, 4.1%, 4.9%, -0.2
- CCOc1cc(C(=O)CCC(=O)OCC(=O)N2c3ccccc3NC(=O)C2(C)C)ccc1O
→ 11.6%, 14.8%, 0.6%, 11.1
- Clc1ccccc1OCc1nc(-c2ccccn2)no1
→ 2.7%, -2.5%, -11.9%, -9.0
- O=C(Cc1ccccc1)NC(NCCc1ccccc1)C(Cl)(Cl)Cl (configuration not stated)
→ 0.9%, 3.2%, 8.9%, -2.4
- COc1cccc(C(=O)CN2C(=O)C(C)(C)Oc3ccc(C(=O)N4CCCCCC4)cc32)c1
→ 3.8%, 16.4%, 0.6%, -11.6
- COc1ccc(/C=C2\SC(=S)N(CCCC(=O)N3CCCCC3CCO)C2=O)cc1 (configuration not stated)
→ -0.2%, -8.9%, ?, .
- Cc1ccccc1NCC(=O)N/N=C\C=C\c1cccc([N+](=O)[O-])c1
→ 1.1%, -4.8%, -5.7%, -5.5
- C[C@]12c3[nH]c4cc(-c5ccco5)ccc4c3CCN1C(=O)[C@@H](CC(=O)NCCc1ccccn1)C[C@@H]2C(=O)N1CCCCC1
→ ?, -18.9%, ., .
- Cc1ccc(Oc2coc3cc(OC(=O)c4cccs4)ccc3c2=O)cc1
→ 3.9%, -2.7%, -34.0%, 0.1
- CSc1ncc(CN2CCc3c([nH]c4ccccc34)C2c2cccc(O)c2)cn1 (configuration not stated)
→ ?, -15.1%, -1.0%, -7.5
- CCCCNc1c2c3c(cccc3n(C)c1=O)C(=O)c1ccccc1-2
→ ?, ?, 24.4%, -0.9
- CC[C@]12c3[nH]c4cc(CCC(=O)N(C)C)ccc4c3CCN1C(=O)[C@@H](CC(=O)NCc1cccc(C(F)(F)F)c1)C[C@@H]2C(=O)N1CCN(C(=O)C2CC2)CC1
→ -1.6%, 32.4%, ., .
- O=C(Nc1nc2c(s1)CCCC2)c1cc(-c2ccncc2)nc2ccccc12
→ 1.1%, -9.8%, -19.0%, -1.7
- C=CCNC(=O)c1cc2nc(C3CC3)cc(C(F)F)n2n1
→ -6.0%, -16.2%, -15.2%, 5.9
- CCc1cccc(CC)c1NC(=O)CN1CCN(c2ccccc2)CC1
→ -2.1%, -11.3%, -12.0%, -3.7

(more compounds)
Below each compound: Rango complex inh, Rango release inh, miR-21 FLuc, GLA inh pH 4.5
- Cc1cc[n+](CCC(=O)O)c2ccccc12
→ ?, -9.1%, -0.3%, -1.5
- Cc1nc2c(-c3ccccc3)cnn2c(N2CCOCC2)c1C
→ -4.2%, -14.8%, -129.8%, .
- O=C(O)C(C=C(Cl)Cl)N1CCOCC1 (configuration not stated)
→ 2.1%, ?, ., .
- C=CCNC(=S)N1CCN(CCN=CC2=C(O)CC(c3ccc(Cl)cc3)CC2=O)CC1 (configuration not stated)
→ 6.3%, 4.2%, -0.9%, 1.7
- O=C(/C=C/c1ccc(F)cc1)Nc1cccc(S(=O)(=O)N2CCOCC2)c1
→ 1.9%, -12.0%, ., .
- CCOC(=O)N1CCN(S(=O)(=O)c2ccc(Cl)cc2)CC1
→ 0.0%, 10.3%, -3.6%, .
- Cc1cc(N2CCOCC2)nc2ccc(NC(=O)CCC(=O)N3CCCC(C)C3)cc12 (configuration not stated)
→ 0.5%, -3.9%, -41.8%, ?
- COc1ccccc1OCCSc1nc2ccccc2n1CCO
→ 0.0%, -5.8%, -5.8%, 5.8
- Cc1cccc(OCc2nnc(SCC(=O)N3c4ccccc4CC3C)n2C)c1C (configuration not stated)
→ 0.0%, 3.2%, 2.0%, 0.0
- CCCC(=O)Nc1nnc(S(=O)(=O)N2CCCC2)s1
→ -2.0%, -0.5%, 0.9%, .
- Cc1noc(C)c1CSc1nnc(-c2ccccc2)o1
→ -3.6%, -7.2%, -22.1%, 5.1
- CCC(c1nnc(SCC(=O)N2CC(=O)Nc3ccccc32)n1Cc1ccccc1)N(C)C (configuration not stated)
→ 5.5%, -1.7%, -0.7%, 1.3
- COc1ccc(-c2nc(=S)[nH][nH]2)cc1
→ 6.4%, 16.7%, -16.5%, 3.3
- CNc1n[nH]c(=S)s1
→ 1.6%, -10.6%, 3.4%, -7.6
- CSc1ccc(Cl)c(C(=O)N2CCN(c3ncccn3)CC2)c1
→ -0.7%, -17.6%, ., .
- O=c1cc(CN2CCN(c3ccc(O)cc3)CC2)nc2scc(-c3ccccc3)n12
→ -3.1%, -6.0%, 2.7%, 2.3
- CN(C)C(CNC(=O)CCc1nc2ccccc2s1)c1ccccc1 (configuration not stated)
→ -2.1%, 1.4%, -2.7%, .
- CC1CCN(C2=NC(=O)/C(=C/c3cn(-c4ccccc4)nc3-c3cccc(S(=O)(=O)N(C)C)c3)S2)CC1
→ -5.1%, -2.9%, -14.9%, -10.3
- O=C(CCN1C(=O)c2ccccc2C1=O)Nc1sc2c(c1C(=O)NCC1CCCO1)CCC2 (configuration not stated)
→ 2.9%, 0.7%, -7.4%, 3.7
- COC(=O)c1ccc(OCC(=O)NC2CCCCCCC2)cc1
→ -1.1%, -16.5%, ., .
- C/C(=N/NC(=O)c1ccn(C)n1)c1ccncc1
→ 5.5%, 22.0%, -19.4%, 3.5
- CCOC(=O)N1CCN(C(=O)CN(CC)S(=O)(=O)c2cc(C)ccc2OC)CC1
→ 0.0%, -7.0%, -1.2%, .
- S=c1[nH]nc(-c2ccccc2)n1/N=C/c1c[nH]c2ccccc12
→ -1.2%, -5.6%, -5.7%, -3.9
- Oc1ccc(Oc2ccc(Oc3ccc(O)cc3)cc2)cc1
→ 0.7%, -17.5%, -20.2%, .
- COc1ccc(CCNC(=O)/C=C/C(=O)O)cc1OC
→ -4.3%, -14.3%, -0.1%, 8.4
- COc1ccc(/C=C(/NC(=O)c2ccccc2)C(=O)N/N=C/c2sccc2C)cc1
→ 0.8%, 6.2%, -11.8%, -2.8

Some of the compounds tested; rates above refer to the full screens.
